BJeLR viability = kills HRASV12-expressing BJeLR cells; BJeLR (HRASV12) viability, CellTiter-Glo ATP luminescence, 48 h; reference of the scale not given here; inhibition, % (no concentration beside the values); 0.17% of 300,000 active;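 active means replicate mean above 50%; inconclusive means above 50% but judged a plate artefact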;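 further: 50 nL library stock added to about 25 µL; numbers are from one replicate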
Mtb hypoxia rep = Mtb hypoxia fluorescent reporter inhibition; fluorescence inhibition, % (no concentration beside the values); AID 1159583; 0.1% of 300,000 active; M. tuberculosis hypoxia-regulated fluorescent reporter, fluorescence;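 active means 35 to 45% if threefold the growth effect, above 45% if 1.5-fold the growth effect; inactive means the rest, general growth blockers included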;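 further: wells of about 50 µL received 100 nL stock; 0% = vehicle wells and 100% = reference inhibitor wells; whole bacteria with a GFP reporter of the hypoxia response; strong numbers were not always called active; many hits fall short of the cut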
Sa ugtP lethal = compounds lethal to S. aureus RN4220 ugtP deletion mutant | growth inhibition, % (test concentration not listed) | AID 1259309 | 0.54% of 330,000 active | OD600 growth, 16 h; some inactives read as strong as hits;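 active means z-score under -3 and OD600 up to 0.15 on both plates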;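 further: plate controls were untreated wells for no effect and antibiotic for full effect; wells of about 80 µL received 100 nL stock; the first replicate is given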
Autofluor counter = compound fluorescence in toxin protease inhibitor counterscreen; compound autofluorescence counterscreen, microsphere flow cytometry; hits give high values; AID 624483; fluorescence intensity (no concentration beside the values); 3.1% of 360,000 active;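 active means at least 3 SD above the mean of all compounds, about 16000 in these data; inconclusive means too few beads counted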;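 further: 100 nL of 1 mM stock went into each well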
PrP 5UTR inh = inhibition of PrP 5' UTR reporter expression | cell-based PrP 5' UTR mRNA reporter, plate reader | inhibition, % (test concentration not listed) | 0.35% of 340,000 active;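 active means every replicate at 50% or more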;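 further: 0 = median of the neutral control wells; tested in H4 reporter cells; numbers are from one replicate; inactives centre near -14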
RN4220 kill = kills Staphylococcus aureus RN4220; AID 1259311; inhibition, % (concentration not given with the values); 0.33% of 330,000 active; S. aureus RN4220 growth, OD600, 16 h;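 active means z-score of -3 or lower and OD600 up to 0.18 on both plates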;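 further: plate controls were untreated cells for no effect and reference antibiotic for full effect; stock transfer was 100 nL into about 80 µL; one replicate is shown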
Mtb hypoxia rep growth = also measured in Mtb hypoxia rep; calls as there; growth inhibition, %; measured here: M. tuberculosis growth (absorbance);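 0% = vehicle and 100% = reference antibiotic; read after six days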
Active calls of the source: *; u = inconclusive; x = not tested or not shown; & = joins results of further samples.

Below each compound – BJeLR viability, Mtb hypoxia rep, Mtb hypoxia rep growth, Sa ugtP lethal, Autofluor counter, PrP 5UTR inh, RN4220 kill
> CCOC(=O)c1c(NC(=O)C2C3CCC(O3)C2C(=O)O)sc2c1CCC(CC)C2 (stereo unspecified)
 : 1, 7, 7, 7, 4757, -24, 9.4
> Cc1ccc(C2(C)NC(=O)N(CC(=O)Nc3ccccc3N3CCCC3)C2=O)cc1 (stereo unspecified)
 : 1, 4, 5, -5, 5199, -22, 2.7
> O=C(COC(=O)c1ccc(=O)[nH]c1)Nc1cccc(S(=O)(=O)N2CCOCC2)c1
 : -4, -4, -1, 6, 6084, 2, 2.8
> COC(=O)c1cc(NS(=O)(=O)c2ccc(N3CCCCC3)c([N+](=O)[O-])c2)cc(C(=O)OC)c1
 : -6, 11, 7, 1, 2936, -5, 6.8
> CCS(=O)(=O)N1CCN(Cc2ccncc2)CC1
 : -5, -3, -2, -2, 7282, -18, 4.6
> C=COc1ccc(N2C(=O)c3ccccc3OC2C)cc1 (stereo unspecified)
 : -3, 8, 11, 4, 3508, -16, 0.3
> O=C(O)C1=CC(c2ccc(C(F)(F)F)cc2)CC(OCc2ccc(CO)cc2)O1 (stereo unspecified)
 : x, 18&18, 9&9, 5&6, x, x, 10&8.7
> CC(OC(=O)c1ccc(Cl)nc1)C(=O)N1CCc2ccccc21 (stereo unspecified)
 : -10, 6, 1, 18, 5221, -8, 2.2
> Cc1cc(C(F)F)n2nc(C(=O)Nc3ccc(S(=O)(=O)NC45CC6CC(CC(C6)C4)C5)cc3)nc2n1
 : -12, -3, 7, -15, 10346, -39, -2.1
> CCN(CC)C(=O)CSc1nc(OC)cc(=O)[nH]1
 : 2, -10, -8, 2, 2326, -25, 2.7
> CCOc1ccccc1NC(=O)C(c1ccccc1)N1CCN(CC(=O)N2CCCC2)CC1 (stereo unspecified)
 : x, 0, 2, 4, 3704, -17, 6.2
> O=C(CCCOc1ccc(Cl)cc1Cl)NCc1ccccn1
 : -6, 13, -1, 5, 2417, 10, 3.4
> O=C(Cn1c(O)c(/C=C2\C=Nc3ccc(Br)cc32)sc1=O)N1CCCC1
 : 4, -4, 1, 1, 3230, -5, 9.1
> CCC(C)(C)n1nnnc1C(c1cc2cccc(C)c2[nH]c1=O)N1CCCC1 (stereo unspecified)
 : -24, -2, 15, 4, 23337*, -19, 3.6
> CCn1c(SCC(=O)N=Nc2c(O)[nH]c3ccccc23)nnc1-c1ccc(C(C)(C)C)cc1
 : -8, 0, -6, 11, x, x, 2.0
> COc1ccccc1CCNC(=O)C(=O)Nc1cc2c3c(c1)C(C)C(=O)N3CCC2 (stereo unspecified)
 : 1, 9, 9, 14, 5263, -20, 2.4
> Nc1cc(C(=O)OCC(=O)N2CCCC2)ccc1Cl
 : 5, x, x, 4, 4321, -11, 0.6
> CN1CC2=CC(O)CC3Oc4c(O)ccc(c4[C@]23C)C1 (stereo partly specified)
 : -1, x, x, 9, 5795, -6, -1.3
> Nn1c(SCC(=O)Nc2nccs2)nnc1-c1cccnc1
 : x, 2, 2, 7, 2682, 10, 2.2
> O=c1cc(CSc2nc3ccccc3[nH]2)c2ccccc2[nH]1
 : -2, 0, 2, -10, 11127, x, 5.2

More structures follow:
Below each compound – BJeLR viability, Mtb hypoxia rep, Mtb hypoxia rep growth, Sa ugtP lethal, Autofluor counter, PrP 5UTR inh, RN4220 kill
> COC(=O)COc1nc(C)c2c(c1C#N)CC(C)(C)OC2
 : 1, x, x, 16, 2879, -2, 2.4
> COc1ccc(C2=NN(C(=O)CSc3nccn3C)C(c3ccco3)C2)cc1 (stereo unspecified)
 : x, -8, 10, -3, 6022, 6, 4.1
> CCCCCSc1nc2c(c(=O)[nH]c(=O)n2C)n1CCc1ccccc1
 : 3, 11, 7, -7, 4660, -8, -4.8
> COc1ccc(C(=O)NC(C)c2cnn(-c3ccccn3)c2C)o1 (stereo unspecified)
 : -6, 5, 1, 2, 5545, -19, -0.4
> COC1CCN(Cc2c(C(=O)N3C[C@@H](C)O[C@@H](C)C3)nc3ccc(Cl)cn23)CC1
 : 4, -12, -11, 0, 4820, -12, 3.0
> COc1ccc(S(=O)(=O)Oc2ccc3ccccc3c2)cc1
 : -3, 15, -1, 32, 2396, -53, 13
> CC(C)NC(=O)CCCn1cc([N+](=O)[O-])cn1
 : -6, 8, 8, 4, 4263, -16, 7.3
> COc1ccc(S(=O)(=O)N2CCN(Cc3cccc(F)c3)CC2)cc1
 : -3, 6, 4, 6, 4556, 1, 1.8
> Cc1occc1-c1nnc(SCC(=O)NC2(C#N)CCCC2)n1C
 : x, 3, 3, -1, 5420, -16, -0.9
> CCN(Cc1ccccc1)C(=O)c1ccc(N(C)S(=O)(=O)c2ccc(C)cc2)cc1
 : 2, 4, 9, 8, 6401, -16, 3.3
> CC(=O)N1CCN(CC(=O)Nc2cccc(S(=O)(=O)N3CCCCC3)c2)CC1
 : x, 7, 12, 8, 3714, -11, 2.4
> CN(CC(=O)Nc1ccccc1Br)C(=O)c1ccccc1Sc1ccccc1C#N
 : x, 25*, 68*, 1, 3822, -14, 8.5
> O=C(NC(=S)Nc1cccc(O)c1)c1ccco1
 : -11, x, x, x, 3891, -62, x
> COc1ccc(NC(=O)CSc2nncs2)cc1S(N)(=O)=O
 : -6, 11, -1, 5, u, -16, 6.5
> COc1ccc(S(=O)(=O)NCCc2c[nH]c3ccc(Cl)cc23)cc1
 : -9, 4, 0, 0, 4563, -1, 6.0
> COc1ccc(C(=O)C2CCCN(C(=O)/C=C/c3cnc[nH]3)C2)c(C)c1 (stereo unspecified)
 : -1, 5, 8, 1, 5669, 1, 0.6
> COc1ccccc1C(=O)Nc1ccc(S(=O)(=O)Nc2cc(C)on2)cc1
 : 3, 15, 21, 3, x, 0, 3.9
> S=C(NCC1CCCO1)Nc1cccc2ccccc12 (stereo unspecified)
 : -1, 8, 14, -8, 3793, -10, 1.1
> C=CCn1c(SCC(=O)Nc2ccccc2OC)nc(O)c(CC)c1=O
 : 1, 7, 5, 3, 10872, -18, 1.6
> COc1ccc2nc(C=NNC(=O)[C@@H]3CCCN3C(=O)OC(C)(C)C)ccc2c1
 : x, 6, 5, 3, x, x, 2.4

Later entries:
Below each compound – BJeLR viability, Mtb hypoxia rep, Mtb hypoxia rep growth, Sa ugtP lethal, Autofluor counter, PrP 5UTR inh, RN4220 kill
> COc1ccc(NC(=O)c2sc(NC(=O)COc3ccccc3)nc2C)cc1
 : 6, 3, 17, -4, 6043, -18, 2.4
> Cc1ccc(C(=O)O/N=C(\N)c2ccccn2)cc1C
 : -22, 14, 7, -3, 3262, 87*, 4.9
> Cc1cc(C(=O)NN=Cc2ccccc2[N+](=O)[O-])c(C)o1
 : x, 8, 5, 1, x, x, 3.9
> COc1ccc2cc(C=O)n(C)c2c1
 : x, 6, 3, -12, 2967, -29, 0.6
> Cc1cc(C)c(C)c(S(=O)(=O)N2CCN(C(=O)C3CCC3)CC2)c1C
 : -3, 4, 4, 2, 5445, -15, 4.7
> Cc1ccc(-n2nc3c(c2NC(=O)/C=C\c2ccc4c(c2)OCO4)CSC3)cc1
 : -4, 7, 4, 11, 5286, -30, 13
> COc1cc(-c2nc(-c3ccccn3)no2)cc(OC)c1OC
 : -10, 4, 0, 13, 7487, -70, 3.0
> CCn1ncc(C2=NOC(C(=O)Nc3cc(OC)c(Cl)cc3OC)C2)c1C (stereo unspecified)
 : -1, -3, -1, 3, 18923*, -15, -2.4
> O=C(Nc1ncccn1)c1ccc([N+](=O)[O-])o1
 : 0, 7, 6, -6, 3382, -12, 5.6
> COc1cc(NC(=O)c2cccs2)c(OC)cc1NC(=O)CCn1nnc2ccccc21
 : 13, -9, 4, 14, 10747, -16, 9.4
> CCOC(=O)C1CCCN(C2CC(=O)N(c3ccc(C)cc3)C2=O)C1 (stereo unspecified)
 : 2, 6, 6, 2, 8589, -18, 6.6
> CCCCn1c(NC(=O)CC)c(C#N)c2nc3ccccc3nc21
 : 1, 2, 2, 8, 3038, 4, 3.6
> CCCCC(=NCCc1c(C)[nH]c2ccccc12)C1=C(O)CC(c2ccccc2)CC1=O (stereo unspecified)
 : 2, 3, 13, 0, 4401, -12, -4.5
> Cc1cccc(NC(=S)NNC(=O)COc2ccc(Cl)cc2Cl)c1
 : 20, 7, 12, -5, 4848, -16, 2.2
> O=C(O)c1ccccc1NC(=O)C1CCN(S(=O)(=O)c2cccc3nsnc23)CC1
 : -7, 0, 3, 1, 4361, -19, 0.6
> COc1ccc(NC(=O)C2=C(C)Nc3nc(CCCO)nn3C2c2ccc(OC)c(OC)c2)cc1 (stereo unspecified)
 : 5, 7, 2, 5, 2404, -27, -0.6
> CCOC1OC(C(=O)N2CCOCC2)=CC(C2CCCCC2)C1CCCO (stereo unspecified)
 : x, 4, -4, 1, x, x, 6.7
> Fc1ccccc1C=NNc1nc(-c2ccccn2)nc2ccccc12
 : x, 2, 15, -2, x, x, 3.0
> O=C(COC(=O)c1ccccc1)c1ccc(Br)cc1
 : 2, 0, -4, 3, 10480, -83, 4.7
> COC(=O)[C@H]1C[C@@H]1[C@H](NC(=O)[C@H]1C[C@@H]1[C@H](NC(=O)OCc1ccccc1)c1ccccc1)c1ccccc1
 : -5, x, x, x, 4048, -7, x

The list goes on, overlapping the part above by four compounds.
Below each compound – BJeLR viability, Mtb hypoxia rep, Mtb hypoxia rep growth, Sa ugtP lethal, Autofluor counter, PrP 5UTR inh, RN4220 kill
> CCOC1OC(C(=O)N2CCOCC2)=CC(C2CCCCC2)C1CCCO (stereo unspecified)
 : x, 4, -4, 1, x, x, 6.7
> Fc1ccccc1C=NNc1nc(-c2ccccn2)nc2ccccc12
 : x, 2, 15, -2, x, x, 3.0
> O=C(COC(=O)c1ccccc1)c1ccc(Br)cc1
 : 2, 0, -4, 3, 10480, -83, 4.7
> COC(=O)[C@H]1C[C@@H]1[C@H](NC(=O)[C@H]1C[C@@H]1[C@H](NC(=O)OCc1ccccc1)c1ccccc1)c1ccccc1
 : -5, x, x, x, 4048, -7, x
> CCCOc1cccc(C2C(C(=O)c3ccc(C)o3)=C(O)C(=O)N2c2nc(C)c(C(C)=O)s2)c1 (stereo unspecified)
 : 7, 0, 7, 1, 6090, -2, -0.8
> CCCC(CCC(=O)Nc1ccc(C(=O)OCC)cc1)C(=O)O (stereo unspecified)
 : x, x, x, -3, 4818, 1, 3.6
> CCn1c(CNC(=O)c2cccnc2)cc2ccccc21
 : 6, 7, 6, 2, 3592, -28, 0.7
> O=C(NCCC1=CCCCC1)C1CCN(C(=O)Nc2ccccc2)CC1
 : -1, 7, -3, 3, 9059, -24, -1.6
> CCOC(=O)C(=O)Nc1cc(C)on1
 : 5, 4, 2, 3, 4344, 26, 2.5
> CCCCCCCc1nc2sc3c(c2c(=O)n1N)CC(C)(C)OC3
 : 7, 0, 6, 9, 3887, -11, 1.6
> Cc1ccc(CC2CC(=O)N(c3nc(C)cc(C)n3)C2=O)cc1 (stereo unspecified)
 : -8, 5, 13, 6, 4591, -25, -1.7
> CSc1cccc(CNC(=O)C2CCC(=O)N(CC3CCCCC3)C2)c1 (stereo unspecified)
 : 0, 3, -4, 13, 4290, -15, -2.3
> COc1cccc(N2CCN(C3CCCC(C)C3)CC2)c1 (stereo unspecified)
 : 7, 8, 10, 10, 24685*, 10, 4.1
> COCC(=O)N(Cc1cc2cc(OC)ccc2[nH]c1=O)c1ccccc1
 : -1, 16, 9, -4, 2866, -5, -5.7
> Cc1c(C(=O)N2CCC(N3CCSCC3)CC2)oc2c(F)cccc12
 : -12, 10, 9, 3, 6075, -9, 1.7
> COc1ccc(CC2(CO)CCN(Cc3cnn(C)c3C)CC2)cc1
 : 12, -9, -8, -9, 5084, -18, 4.7
> O=C(O)Cn1nc(-c2ccccc2)cc1-c1ccccc1
 : 12, 11, 3, 9, 3840, -32, 4.6

Source: PubChem (several laboratories)

No enrichment for hits. Share with any hit: about 4.1%.
